High-throughput results as filed in PubChem.
GLA inh pH 4.5: inhibitors of human alpha-galactosidase A at pH 4.5 | purified enzyme, 4-MU-alpha-Gal fluorescence, pH 4.5 | activity change, negative = inhibition, % at 105 µM | 230,000 tested, under 10 active; inconclusive = small, poorly fitted or top-dose-only inhibition, or a rising curve; inactive = flat fitted curve, though single readings scatter; no compound was filed as active;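 note: 0% = full activity with enzyme and -100% = basal without enzyme; dose as in the result columns while the protocol names 77 µM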
Target sequence (P06280 whole entry, looked up): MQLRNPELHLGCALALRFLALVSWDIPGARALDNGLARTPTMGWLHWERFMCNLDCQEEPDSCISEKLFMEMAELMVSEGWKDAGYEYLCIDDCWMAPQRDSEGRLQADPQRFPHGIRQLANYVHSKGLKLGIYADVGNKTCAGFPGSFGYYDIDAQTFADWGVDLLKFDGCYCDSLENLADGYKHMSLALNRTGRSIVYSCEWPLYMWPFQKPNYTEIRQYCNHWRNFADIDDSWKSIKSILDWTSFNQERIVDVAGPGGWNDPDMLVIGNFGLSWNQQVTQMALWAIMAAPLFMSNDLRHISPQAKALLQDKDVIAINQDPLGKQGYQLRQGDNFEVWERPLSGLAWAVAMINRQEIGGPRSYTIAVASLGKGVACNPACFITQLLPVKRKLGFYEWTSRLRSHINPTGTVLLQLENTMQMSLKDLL
Rango complex inh: Rango-importin beta binding inhibition | Potency, µM (doses to about 92.2 µM), without a hit: at the highest dose inhibition of complex formation | actives 0.031% (n = 340,000) | Rango CFP/YFP FRET sensor + importin beta, 45 min | Q14974; active = rising FRET ratio curve, often small or poorly fitted; inconclusive = mostly compound fluorescence or quenching in the first reads; inactive = flat curves in all reads;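 note: potency is the fitted concentration of half-maximal effect; 0% = DMSO wells and 100% = buffer wells lacking importin beta; nearly all actives have a fitted effect of over 15% in size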
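Inhibition scored from the CFP 486 nm/YFP 530 nm FRET ratio 45 min after adding 0.125 microM importin beta to 50 nM Rango biosensor preincubated 5 min with compound (room temperature, PBS with DTT, Tween-20, BSA). No-importin wells as positive control.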
Rango dissoc inh: inhibitors of RanGTP-induced Rango-importin beta complex dissociation | Biochemical FRET Rango-importin beta, RanGTP-induced dissociation | Potency, µM (highest dose often 46.1 µM), inactives show at the top dose activity change, negative = inhibition | O95149+P62826 | actives 0.071% (n = 340,000); active means falling FRET ratio curve, often poorly fitted, with flat reads before Ran was added; inconclusive means other falling curves, or compound fluorescence or quenching; inactive means flat or rising ratio curve;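 note: potency is the fitted concentration of half-maximal effect; % of control where 0% means no effect; nearly all actives have a fitted effect of over 45% in size; -100% = wells without RanGTP and RCC1; the record marks most hits as doubtful in a second field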
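Compounds preincubate 5 min with complex of recombinant Rango and importin beta in PBS with 1 mM DTT. Ran (0.6 uM) loaded with 2 mM GTP plus 0.2 uM RCC1 starts dissociation; FRET is recorded 45 min later.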
miR-21 reporter: miR-21 reporter, rising signal; AID 2288; Potency, µM (series often up to 38.3 µM), inactives show at the top dose reporter change, positive = more light; 340,000 tested, under 10 active; HeLa miR-21 FLuc reporter, luciferase, 48 h; active = well fitted rising curve with a large enough effect; inconclusive = small, poorly fitted or top-dose-only effect; inactive = no such curve, though single readings can be large or run the other way;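 note: % of control where 0% means no effect; miR-21 action dims this reporter so a rising signal means less miR-21 action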
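Using DMEM plus 10% FBS, HeLa miR-21-FLuc cells are incubated with test compounds (final up to about 40uM) for 48 hours; firefly luciferase signal is then imaged following reagent-mediated lysis.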
An asterisk follows results filed as active; ? = inconclusive; / = no result given; & = joins results of further samples. Only part of the results is shown (hit frequency here may not be typical).

| Compound | GLA inh pH 4.5 | Rango complex inh | Rango dissoc inh | miR-21 reporter |
| --- | --- | --- | --- | --- |
| CC(C)(C)NCc1cc(Br)ccc1OC1CCCC1 | -2 | 0.3% | 6% | 0% |
| O=C(CNC(=O)N1CC(=O)Nc2ccccc21)NCCc1c[nH]c2ccccc12 | / | 1.7% | 24% | 3% |
| N#CC1=C2SCN(Cc3ccco3)CN2C(=O)CC1c1ccccc1F (stereo not drawn) | 3 | ? | -5% | -2% |
| COc1cccc(-c2csc(N3CCN(C(=S)Nc4ccccc4C)CC3)n2)c1 | 0 | ? | -14% | -32% |
| Cc1ccc(OCC(=O)NNC(=O)C(C)Sc2ncnc3sc(C)c(C)c23)cc1 (stereo not drawn) | 5 | 0.3% | 9% | -4% |
| CCn1nnnc1-c1ccc(OC)c(S(=O)(=O)NCCc2ccccc2)c1 | -3 | -3.0% | -4% | -7% |
| O=C(Nc1ccc(NC(=O)C2CCCCC2)nc1)c1cccc(F)c1 | / | 3.4% | 1% | -15% |
| Cc1ccccc1C(=O)NC(NC(=S)Nc1ccc(S(N)(=O)=O)cc1)C(Cl)(Cl)Cl (stereo not drawn) | -1 | ? | -9% | 13% |
| CC(C)N(Cc1cn(C)nc1-c1cccc(Cl)c1)Cc1nccn1C | 4 | -0.9% | -3% | -1% |
| Cc1c(Cl)cccc1NC(=O)CN1CCC(NC(=O)C2CCCCC2)CC1 | -3 | 1.9% | 1% | 9% |
| COC(=O)C(C)Oc1ccc(-c2nccc(-c3ccccn3)n2)cc1 (stereo not drawn) | / | -4.3% | -4% | -47% |
| CC(NC(=O)c1cc2c(s1)CS(=O)(=O)C2)c1ccccc1 (stereo not drawn) | / | 2.9% | 15% | -4% |
| Cc1cccc(N(C(=O)c2csnn2)C(C(=O)NC(C)(C)C)c2cccs2)c1 (stereo not drawn) | 2 | -0.1% | 1% | -1% |
| COC(=O)c1cc(COC(=O)c2nc3nccc(C)n3n2)oc1C | 4 | ? | 1% | -4% |
| C=CCn1c(SC)nnc1-c1ccc2ncccc2c1 | -6 | 2.8% | -7% | -1% |
| CCCc1ccc(S(=O)(=O)N/N=C(/C)c2ccc3c(c2)OCO3)cc1 | / | 0.5% | 3% | -2% |
| COCCn1nnnc1CN(CCc1ccccc1)Cc1cc2ccc(C)cc2[nH]c1=O | 1 | 2.3% | -7% | -19% |
| CC(C(N)=O)N1C(=O)c2cccc3cccc1c23 (stereo not drawn) | -2 | ? | ? | -10% |
| CN(CC(=O)Nc1ccc(Cl)cc1)CC(=O)Nc1ccc(C(N)=O)cc1 | ? | -0.8% | -11% | -1% |
| O=C(NCCN1CCOCC1)c1ccc(Cl)c(Cl)c1 | / | -2.1% | 1% | -9% |
| Cc1ccc(S(=O)(=O)NC(=O)Nc2nc(-c3ccc(F)c(F)c3)cs2)cc1 | -4 | 3.5% | -6% | -28% |
| CN(C)c1cccc(NC(=O)CCc2ccccc2)c1 | -4 | 0.4% | -11% | -29% |
| COCC(=O)Nc1ccc(Br)c(C)c1 | -2 | 1.1% | -1% | -25% |
| O=C(NCCOC(=O)c1ccccc1)c1ccccc1 | / | 0.1% | 3% | / |
| COc1ccc(-c2c(C#Cc3ccsc3)c3cc(-c4ccc(OC)c(F)c4)ccc3n2C)cc1 | / | ? | -19% | / |
| CC(=O)c1cccc(-n2c(CCC(=O)O)ccc2-c2ccc(C)cc2)c1 | / | 1.6% | -7% | -1% |
| COc1ccccc1N1CCN(C(=O)CCCn2nc(C)c([N+](=O)[O-])c2C)CC1 | -3 | 0.3% | 0% | -8% |
| COc1ccccc1NC(=O)CSc1nc2nccnc2c(=O)n1Cc1cccs1 | / | 1.7% | -14% | 1% |
| Cc1cc(C)nc(SCc2nnc(SCC(=O)Nc3nccs3)n2Cc2ccco2)n1 | 1 | 0.2% | -6% | -9% |
| CC(=O)N1CCc2cc(S(=O)(=O)NCCN3CCC(C)CC3)ccc21 | -15 | 0.4% | -11% | -3% |

Arranged by SMILES length (highest first): some entries from above
| Compound | GLA inh pH 4.5 | Rango complex inh | Rango dissoc inh | miR-21 reporter |
| --- | --- | --- | --- | --- |
| Cc1ccc(S(=O)(=O)NC(=O)Nc2nc(-c3ccc(F)c(F)c3)cs2)cc1 | -4 | 3.5% | -6% | -28% |
| O=C(CNC(=O)N1CC(=O)Nc2ccccc21)NCCc1c[nH]c2ccccc12 | / | 1.7% | 24% | 3% |
| CN(CC(=O)Nc1ccc(Cl)cc1)CC(=O)Nc1ccc(C(N)=O)cc1 | ? | -0.8% | -11% | -1% |
| CC(=O)N1CCc2cc(S(=O)(=O)NCCN3CCC(C)CC3)ccc21 | -15 | 0.4% | -11% | -3% |
| COC(=O)C(C)Oc1ccc(-c2nccc(-c3ccccn3)n2)cc1 (stereo not drawn) | / | -4.3% | -4% | -47% |
| O=C(Nc1ccc(NC(=O)C2CCCCC2)nc1)c1cccc(F)c1 | / | 3.4% | 1% | -15% |
| CC(C)(C)NCc1cc(Br)ccc1OC1CCCC1 | -2 | 0.3% | 6% | 0% |

Following part.
| Compound | GLA inh pH 4.5 | Rango complex inh | Rango dissoc inh | miR-21 reporter |
| --- | --- | --- | --- | --- |
| S=C(c1ccccc1)N1CCN(c2ccccc2)CC1 | / | 0.1% | 1% | / |
| Cc1ccc(N(CC(=O)NCc2ccccc2)C(=O)CCC(=O)Nc2ccccn2)cc1 | / | 3.9% | -12% | 0% |
| Cc1ccccc1-c1ccc(C(=O)Nc2cccc(F)c2)o1 | -2 | 0.6% | -1% | -53% |
| CC(C)c1nc(SCC(=O)Nc2ccc(C(=O)O)cc2)c2c3c(sc2n1)CCCC3 | / | 1.5% | 29% | -9% |
| Cc1cc(OCCN2CC(C)OC(C)C2)ccc1[N+](=O)[O-] (stereo not drawn) | 10 | -2.7% | 8% | -14% |
| O=C(CNC(=O)COc1ccccc1)NCc1ccccc1F | 0 | 1.3% | -12% | -9% |
| COc1ccc(S(=O)(=O)N(C)CC(=O)N2CCN(C)CC2)cc1C | 7 | -0.1% | -3% | -8% |
| Cc1ccc(N/C(CSC(N)=O)=N\S(=O)(=O)c2ccc(C)cc2)cc1 | 5 | 1.7% | 15% | -1% |
| Cn1c(CNC(=O)c2ccco2)nnc1SCC(=O)N1c2ccccc2Sc2ccccc21 | 0 | -0.3% | -15% | -1% |
| COc1ccc(N2C(=O)NC(NS(=O)(=O)c3ccc(NC(C)=O)cc3)(C(F)(F)F)C2=O)cc1 (stereo not drawn) | / | -0.1% | 1% | -2%&0% |
| CC1(C)CC(C(=O)Nc2ccccc2)C(=O)O1 (stereo not drawn) | / | -0.5% | 0% | / |
| COC(=O)c1ccc(Sc2ccccc2NS(=O)(=O)c2ccc(OC)cc2)nc1 | -16 | 2.2% | 4% | -10% |
| CN(C)c1nc(N)nc(CSc2nnnn2-c2ccc(F)cc2)n1 | 5 | -4.3% | 33% | -11% |
| COc1ccc(OCC(O)CNC(=O)c2ccccc2C(=O)O)cc1 (stereo not drawn) | 1 | 2.2% | 0% | -11% |
| CC(C)(C)P(=O)(CO)c1ccccc1 (stereo not drawn) | 9 | -1.7% | 1% | -6% |
| CCOC(=O)CCSc1nnc(-c2cccnc2)n1-c1ccccc1OC | 0 | -1.3% | 39% | -1% |
| Cc1occc1C(=O)Nc1cc(=O)n(C)c(=O)n1C | -5 | ? | -13% | -2% |
| COc1ccc(N(C)C(=O)CC2(CC(=O)O)CCCCC2)cc1 | -3 | 3.1% | -5% | -4% |
| CCOc1cc(C(=O)CCC(=O)OCC(=O)Nc2ccc(C)c(S(=O)(=O)N(C)C)c2)ccc1O | -3 | 3.9% | 9% | 2% |
| COCCNc1oc(-c2ccccc2Cl)nc1S(=O)(=O)c1ccc(C)cc1 | / | 3.8% | 6% | / |
| CCN1C(=O)C(CC(=O)Nc2ccc(OC)cc2)N(CCN2CCOCC2)C1=S (stereo not drawn) | -1 | -1.7% | 8% | -1% |
| N#Cc1cc2c(nc1SCC(=O)Nc1sc3c(c1C#N)CCC3)CCCCC2 | -3 | ? | ? | -3% |
| CC(=O)N/C(=C\c1ccc(Cl)cc1)C(=O)O | 1 | 2.8% | 7% | -1% |
| COc1ccc(CNC(=O)Cn2cc([N+](=O)[O-])cn2)cc1 | / | -2.5% | -4% | / |
| CC(C)CCC(=O)N1CCC(N2CCC(C(=O)NCc3ccccn3)CC2)CC1 | / | ? | -21% | -1% |
| COc1cc2[nH]c(=S)nc(NCc3cccnc3)c2cc1OC | / | -1.2% | -18% | 6% |
| COc1nccnc1NS(=O)(=O)c1ccc(NC(=O)c2cccc(C)c2)cc1 | 4 | 1.2% | -6% | -1% |
| O=C(CC(=O)c1ccccc1)Nc1ccc([N+](=O)[O-])cc1 | / | 0.4% | 5% | / |
| O=C(Cc1cccs1)N1CCN(S(=O)(=O)c2ccc(Br)cc2)CC1 | 11 | 0.1% | -8% | -4% |
| CCCCC1(Cc2ccc(OC)c([N+](=O)[O-])c2)C(=O)N(c2ccccc2)N(c2ccccc2)C1=O | -16 | -3.7% | 2% | 0% |

In a second layout: entries from further up.
| GLA inh pH 4.5 | Rango complex inh | Rango dissoc inh | miR-21 reporter | SMILES |
| --- | --- | --- | --- | --- |
| / | 3.9% | -12% | 0% | Cc1ccc(N(CC(=O)NCc2ccccc2)C(=O)CCC(=O)Nc2ccccn2)cc1 |
| -2 | 0.6% | -1% | -53% | Cc1ccccc1-c1ccc(C(=O)Nc2cccc(F)c2)o1 |

(further entries)
| Compound | GLA inh pH 4.5 | Rango complex inh | Rango dissoc inh | miR-21 reporter |
| --- | --- | --- | --- | --- |
| CCCCCCNS(=O)(=O)c1ccccc1Br | 1 | -4.2% | 18% | -5% |
| Cc1noc(C)c1C(=O)N1CCc2ccccc21 | -4 | -2.9% | -19% | -3% |
| Cc1ccc(C)c(OCC(=O)Nc2nc3ccc([N+](=O)[O-])cc3s2)c1 | -7 | -2.2% | -18% | -5% |
| COc1ccccc1NC(=O)Cn1nnc(C(=O)NCc2cccs2)c1N | / | -0.3% | 42% | 24%&28% |
| O=C(CSc1nnc(CN2CCOCC2)n1-c1ccc(Cl)cc1)N1CCc2ccccc21 | / | 0.3% | -3% | / |
| COC(=O)c1cc(S(=O)(=O)Nc2cc(OC)cc(OC)c2)c[nH]1 | / | -7.2% | 1% | 7% |
| C=CCn1c(SCC(C)=O)nnc1-c1cc(-c2ccccc2)sc1N | -2 | 1.1% | ? | 7% |
| CCc1ccc2oc(=O)cc(CN3CCCCC3)c2c1 | / | 4.6% | 14% | -10% |
| COc1cc2c(cc1OC)CN(C(=O)c1ccco1)CC2 | 5 | -2.6% | 6% | -16% |
| O=C(O)CCCN1C(=O)/C(=C/c2cn(-c3ccccc3)nc2-c2cccs2)SC1=S | -17 | ? | -24% | 0% |
| CCN1CCN(c2cc(C)c3cc(NC(=O)c4ccncc4)ccc3n2)CC1 | -9 | 0.1% | 10% | 0% |
| COc1ccc(C(C)=O)cc1COc1ccc([N+](=O)[O-])c(C)c1 | -8 | -3.7% | -5% | -15% |
| COc1ccc(NS(=O)(=O)c2ccc(N3CCCC3)c(NC(=S)Nc3ccc(SC(F)F)cc3)c2)cc1 | -4 | -3.4% | -6% | 0% |
| CCc1ccc(S(=O)(=O)c2ccc(-n3nc(C)cc3N)cc2)cc1 | -2 | 1.8% | 14% | 1% |
| Cc1ccc2nc(N/C(=N/S(=O)(=O)c3ccc(F)cc3)c3ccccc3)sc2c1 | 10 | -1.4% | 3% | -58% |
| CC1(C(=O)NCCCN2CCOCC2)Oc2cccnc2NC1=O (stereo not drawn) | -7 | 0.7% | -19% | -2% |
| CC1CCc2[nH]c3ccc(C(=O)N(C)CC(=O)Nc4cccc(F)c4)cc3c2C1 (stereo not drawn) | / | -2.8% | -8% | / |
| COc1cc(OC)c(OC)cc1CN1CCN(Cc2ccco2)CC1 | / | -4.0% | ? | -1% |
| Cc1cccc(C(=O)NNC2=CC(=O)CC(C)(C)C2)c1O | -17 | ? | ? | -39% |
| COc1ccccc1O | / | -2.0% | -10% | 2% |
| COc1cccc(NC(=O)[C@H](CC(C)C)NC(=O)[C@@H]2Cc3ccccc3CN2)c1 | / | 0.2% | 12% | -9% |
| O=C(N/N=C/c1ccc(O)c(O)c1)NC12CC3CC(CC(C3)C1)C2 | / | 0.3% | -7% | -31% |
| CC(=O)N/C(=C\c1ccccc1)C(=O)OCC(=O)N(C)C1CCCCC1 | -8 | -0.9% | 2% | -2% |
